# gsp agonist = qHTS for Agonist of gsp, the Etiologic Mutation Responsible for Fibrous Dysplasia/McCune-Albright Syndrome: qHTS. 340,000 tested, 0.13% active. gsp mutant cells, cAMP HTRF, 30 min; control for the full effect not named in the record. Potency, µM (highest dose often 76.9 µM), for inactives: at the top dose activation (cAMP increase), usual class: activators. AID 624287, 2012; active = well fitted activation curve with a large enough effect; inconclusive = small, poorly fitted or top-dose-only effect, or another doubt; inactive = no such curve, though single readings can be large or run the other way; cell line not stated here;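 further: phosphodiesterase inhibitor Ro 20-1724 added with compounds to block cAMP breakdown; potency means the concentration at half of the fitted maximal effect; nearly all actives have a fitted effect of over 60% in size; about a fifth of the inactives were tested at one dose only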
#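 Cells stably selected in G418 were plated at 2000/well, grown 16-24 hr, then given compounds in DMSO with the PDE inhibitor […] (300 uM solution added) for 30 min at 37C; cAMP was read by HTRF.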
# Sfp PPTase inh = qHTS Assay for Inhibitors of Bacillus subtilis Sfp phosphopantetheinyl transferase (PPTase). 310,000 tested, 3.5% active. AID 1490, 2009. 4'-phosphopantetheinyl transferase ffp (Bacillus subtilis), Q9F4F7. Potency, µM, for the others: max response, negative = inhibition, most hits filed as inhibitors. Biochemical Sfp PPTase activity, qHTS; active means well fitted inhibition curve with a large enough effect; inconclusive means small, poorly fitted or top-dose-only effect, or another doubt; inactive means no such curve, though single readings can be large or run the other way;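 further: the enzyme is Sfp with the accession as filed and its product quenches rhodamine fluorescence; potency means the concentration at half of the fitted maximal effect; 0% = enzyme reaction without inhibitor and -100% = no enzyme wells; top concentration of the series not given in the record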
#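 After 15 min at room temperature with compound, 15 nM Sfp received 5 uM rhodamine-CoA plus 12.5 uM BHQ-2-ybbR (50 mM Hepes pH 7.6, 10 mM MgCl2). Rate came from the fluorescence difference over 30 min, ex 525/em 598 nm.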
# ClpP mod = qHTS Assay for Activators of ClpP; Potency, µM (titrated, usually from 57.5 µM), for the others: top-dose activity change, negative = active; 340,000 tested, 1.9% active; purified B. subtilis ClpP, FRET peptide cleavage, 20 min; ATP-dependent Clp protease proteolytic subunit (Bacillus subtilis (strain 168)), P80244; active = well fitted falling curve with a large enough effect; inconclusive = small, poorly fitted or top-dose-only effect; inactive = no such curve, though single readings can be large or run the other way; further: potency means the concentration at half of the fitted maximal effect; the source files actives as falling curves though it sought activators and does not explain the sign; nearly all actives have a fitted effect of over 65% in size; many hits overshoot -100%
# Target sequence (P80244 whole entry, looked up): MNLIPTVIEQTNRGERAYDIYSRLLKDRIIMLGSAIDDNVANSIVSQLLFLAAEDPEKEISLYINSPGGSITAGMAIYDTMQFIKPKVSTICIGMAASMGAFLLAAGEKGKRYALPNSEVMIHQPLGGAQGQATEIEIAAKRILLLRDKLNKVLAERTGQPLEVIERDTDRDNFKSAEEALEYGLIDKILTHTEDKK
#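 ClpP 10 microg/mL final, pH 8 Tris/KCl buffer with BSA, glycerol, Tween-20; compound pinned in; FRET-FV substrate; RT 20 min; Ex320/Em430; ΔFRET vs ADEP 5.8 microM, DMSO, no enzyme.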
# TRPV1 PAM = HTS Assay for Compounds that Act as Potentiators of the Vanilloid Receptor 1 | Transient receptor potential cation channel subfamily V member 1 (Homo sapiens), Q8NER1 | TRPV1-expressing cells, Fluo-8 calcium influx, capsaicin EC20 potentiation; host cell line not named in the record; control for the full effect not named in the record | potentiation, % at 8.33 µM | 320,000 tested, 0.02% active | AID 540277, 2011; active means potentiation above 80%; inconclusive means 30% to 80%; inactive means below 30%; further: 0% is about no effect
# Target sequence (Q8NER1 whole entry, looked up): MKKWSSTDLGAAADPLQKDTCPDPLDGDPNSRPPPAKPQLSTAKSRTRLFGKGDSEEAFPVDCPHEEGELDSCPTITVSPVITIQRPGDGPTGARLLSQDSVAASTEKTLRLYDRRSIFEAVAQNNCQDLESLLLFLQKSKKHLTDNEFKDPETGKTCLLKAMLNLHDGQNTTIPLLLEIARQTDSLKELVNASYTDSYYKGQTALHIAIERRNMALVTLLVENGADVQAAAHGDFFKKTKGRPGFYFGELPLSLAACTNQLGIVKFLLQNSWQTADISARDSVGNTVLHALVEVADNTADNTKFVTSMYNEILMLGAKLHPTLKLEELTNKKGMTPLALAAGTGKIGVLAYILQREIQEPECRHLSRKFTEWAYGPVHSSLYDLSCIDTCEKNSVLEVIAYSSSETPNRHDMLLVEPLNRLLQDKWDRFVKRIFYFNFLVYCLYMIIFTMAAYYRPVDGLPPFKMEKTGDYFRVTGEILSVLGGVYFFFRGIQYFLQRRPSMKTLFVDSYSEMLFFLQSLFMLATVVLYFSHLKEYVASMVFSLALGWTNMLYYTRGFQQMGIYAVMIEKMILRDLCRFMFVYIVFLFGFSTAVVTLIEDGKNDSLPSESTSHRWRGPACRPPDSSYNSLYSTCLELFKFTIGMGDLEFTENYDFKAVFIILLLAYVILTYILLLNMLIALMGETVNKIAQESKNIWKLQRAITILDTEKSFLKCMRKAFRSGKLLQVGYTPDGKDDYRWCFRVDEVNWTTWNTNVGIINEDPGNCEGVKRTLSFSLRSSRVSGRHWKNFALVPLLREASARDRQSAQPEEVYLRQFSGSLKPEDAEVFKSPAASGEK
#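 Cells expressing TRPV1 were dye-loaded with Fluo-8 and read kinetically: 10 s baseline, 3 min after compound (agonist portion), then 2 min after EC20 capsaicin (allosteric enhancer portion). Calcium-bound dye fluorescence at 480/520 nm.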
# CtBP-E1A inh = qHTS Assay for Inhibitors of the CtBP/E1A Interaction; 340,000 tested, 0.49% active; AlphaScreen GST-E1A/His-CtBP binding, 1536-well; hits give low values; control for the full effect not named in the record; CtBP / adenovirus E1A interaction (AlphaScreen); AID 651724, 2012; activity change, % (concentration not given with the values); in the data active means activity change below about -65%; inconclusive means about -30% to -65%; inactive means above about -30%; further: on the % scale 0 is the no-effect control and ±100 the full control effect
#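 Homogeneous bead-based format: GST-tagged E1A captured on glutathione donor beads, His-tagged CtBP on nickel acceptor beads; compounds precede bead addition by 2 h at 37 °C.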
# Menin MLL FP FL = qHTS Assay for Inhibitors Targeting the Menin-MLL Interaction in MLL Related Leukemias: Competition With Fluorescein Labeled MLL-derived Peptide; FP activity change, % at 61.4 µM; AID 1766, 2009; Fluorescence polarization, fluorescein-MLL peptide displacement from menin; 290,000 tested, under 10 active; inconclusive = falling polarisation curve, or a change in total fluorescence; inactive = total fluorescence flat and polarisation flat or rising; no compound was filed as active; the % refers to the polarisation; negative = inhibition;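 further: % of control where 0% means no effect; inhibitors lower the polarisation; unlabelled MLL peptide was the positive control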
# gsp antagonist = qHTS for Antagonists of gsp, the Etiologic Mutation Responsible for Fibrous Dysplasia/McCune-Albright Syndrome: qHTS. 340,000 tested, 0.4% active. Potency, µM (titrated, usually from 76.9 µM), for the others: at the highest dose activity change, negative = inhibition, usual class: inhibitors. gsp-mutant cells, cAMP HTRF, 30 min; control for the full effect not named in the record; active = falling curve of any shape with a large fitted effect; inconclusive = falling curve, mostly with a smaller effect; inactive = flat or rising curve; cell line not stated here;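 further: intracellular cAMP measured with PDE inhibitor Ro 20-1724 present during compound exposure; potency means the concentration at half of the fitted maximal effect; on the % scale 0 is the no-effect control and ±100 the full control effect; nearly all actives have a fitted effect of over 65% in size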
#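 Measurement of cellular cAMP by homogeneous time-resolved fluorescence following a 30 min compound exposure at 37C. The PDE inhibitor […] was present throughout; the assay buffer was DPBS with 0.05% BSA and 0.005% Tween 20.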
# * = called active by the depositor; ? = inconclusive; . = no result given; & = joins results of further samples; [ ] = remark or other dose.
SMILES,gsp agonist,Sfp PPTase inh,ClpP mod,TRPV1 PAM,CtBP-E1A inh,Menin MLL FP FL,gsp antagonist
Cc1c(C)c2c(OCC(=O)NCC(C)C)cc3c(c2oc1=O)CCC(C)(C)O3,?,7%,3.6%,-19,-11,-12,-4%
COc1ccccc1N1CCN(S(=O)(=O)c2ccc(-c3cnc(C4CC4)o3)cc2)CC1,7%,5%,?,24,.,.,-12%
Cc1ccc(-c2csc(NCCn3c(-c4ccncc4)nc4cc(C(F)(F)F)ccc43)n2)cc1,-7%,.,1.4%,.,0,.,-8%
COC(=O)C1=C(C)C(c2ccc(OC)cc2)NC(=O)N1 (configuration not stated),-12%,-3%,-0.8%,-2,.,-1.8,2%
O=C(CCS(=O)(=O)c1cccc2nsnc12)N1CCN(c2ccccc2F)CC1,2%,-8%,-0.3%,16,1,0.1,5%
O=C(CCn1ccc2cc(S(=O)(=O)N3CCCC3)ccc21)NCc1ccccc1,-14%,3%,-1.8%,-24,19,-3.1,2%
COc1ccc(NC(=O)c2ccccc2[N+](=O)[O-])cc1OC,23%,-4%,-3.2%,2,-14,-1.1,11%
COc1ccc(OCCCC(=O)Nc2cccc(S(=O)(=O)N3CCCCCC3)c2)cc1,0%,.,-0.8%,-9,.,.,-21%
Nn1c(SCC(=O)N2CCOCC2)nnc1-c1ccccc1Cl,-22%,12%,0.4%,10,8,4.4,0%
CCc1ccc(NC(=O)[C@H](C)NC(=O)C2CCN(C(=O)[C@@H](N)Cc3ccccc3)CC2)cc1,16%,4%,-0.2%,0,1,-3.7,-10%
Cc1ccc(Sc2ncccc2O)cc1,-1%[15.4 µM],.,-19%,.,2,.,8%
CCCOc1ccc(-c2nc(SCc3ccccc3)[nH]c(=O)c2C#N)cc1OC,-16%[15.4 µM],2%,.,12,2,-6.8,-24%
Cc1cccc2cc(CN(Cc3ccco3)S(=O)(=O)c3ccc4c(c3)OCCO4)c(=O)[nH]c12,?,4%,?,1,-8,3.9,?
Cc1ccc2ncnc(NCCCN3CCOCC3)c2c1,14%,20%,-14%,-5,-18,6.2,6%
Cc1ccc(C(=O)Nn2c(C)nc3ccccc3c2=O)cc1C,-19%,9%,0.2%,-11,2,-3.2,6%
COc1ccc(-n2nc(C#N)c(Cl)cc2=O)cc1,?,10%,.,10,0,-0.9,-5%
Cc1cc(C)n(-c2ccc(C(=O)Nc3nc4ccccc4s3)cc2)n1,-46%[inhibitor],8%,-27%,-30,-1,-1.7,25%
CC1CN(C(=O)c2ccc(NS(=O)(=O)c3ccc(C(C)(C)C)cc3)cc2)CC(C)O1 (configuration not stated),15%,0%,-0.4%,1,1,4.4,-20%
C/C(=N\Nc1cccc([N+](=O)[O-])c1)c1cc(F)ccc1O,2%,9%,-2.2%,5,.,-0.3,-14%
COc1ccc(NC2CCCN(C(=O)c3cccc(C(F)(F)F)c3)C2)cc1OC (configuration not stated),-25%,2%,1.8%,8,.,2.4,2%
COC(=O)C1CC(=O)N(c2ccc(C)cc2)C1 (configuration not stated),4%,10%,0.5%,9,.,2.0,-3%
Cc1cccc(Nc2nc(C)cc(C)n2)c1,-23%,-23%,1.0%,16,.,5.1,0%
CNCC(=O)N(CC(C)C)c1c(N)n(CC(C)C)c(=O)[nH]c1=O,6%[15.4 µM],1%,.,-13,-5,-0.7,9%
COC(=O)CSc1nc2ccccc2nc1SCC(=O)OC,6%,50µM*,-0.7%,-3,8,-6.3,0%
CCN1CCN(C(=O)C2c3cc(OC)c(OC)cc3C(=O)N3CCc4ccccc4C23)CC1 (configuration not stated),-11%,16%,0.4%,-6,4,-2.9,2%

# Entries of single compounds, looked up by structure. Order of values: gsp agonist	Sfp PPTase inh	ClpP mod	TRPV1 PAM	CtBP-E1A inh	Menin MLL FP FL	gsp antagonist
# Profile of `Nn1c(SCC(=O)N2CCOCC2)nnc1-c1ccccc1Cl` = -22%	12%	0.4%	10	8	4.4	0%
# Profile of `CC1CN(C(=O)c2ccc(NS(=O)(=O)c3ccc(C(C)(C)C)cc3)cc2)CC(C)O1` (configuration not stated) = 15%	0%	-0.4%	1	1	4.4	-20%
# Profile of `Cc1cccc(Nc2nc(C)cc(C)n2)c1` = -23%	-23%	1.0%	16	.	5.1	0%

# (cont.)
SMILES,gsp agonist,Sfp PPTase inh,ClpP mod,TRPV1 PAM,CtBP-E1A inh,Menin MLL FP FL,gsp antagonist
Cc1cccc(OCC(=O)NCC(=O)N/N=C/c2cc(Br)ccc2OCc2ccccc2)c1,-42%[inhibitor],16%,.,7,6,?,11%
CCn1c(C)c(C(=O)O)c2cc(OC)c3ccccc3c21,12%,10%,3.7%,-6,-8,4.2,-4%
COC(=O)c1cc(Br)c(=O)n(-c2ccccc2OC)c1,?,9%,-2.0%,-10,4,1.5,-1%
COCCNC(=O)Cn1cc(/C=C(\C#N)C(=O)NC2CC2)c2ccccc21,-26%,8%,.,2,-2,-0.8,3%
Cc1cc(-c2csc(N)n2)c(C)n1CCC(C)C,-4%,50µM*,-1.9%,16,-8,?,0%
COC(C(=O)Nc1ccc(S(=O)(=O)Nc2ccc(F)cc2)cc1)c1ccccc1 (configuration not stated),14%[15.4 µM],9%,.,1,3,1.7,-2%
Cc1cc(C)cc(C(=O)NCc2ccc3c(c2)OCO3)c1,1%,0%,0.7%,9,9,7.4,-15%
O=C(O)/C=C/C(=O)Nc1nc(-c2ccc3ccccc3c2)cs1,-28%,.,-1.2%,.,7,.,2%
Cc1ccc(NC(=O)c2cnccn2)c(C)c1,16%,6%,-0.3%,15,.,-3.7,3%
NNC(=O)/C(=N/Nc1ccccc1)S(=O)(=O)c1ccc(Cl)cc1,4%,4%,0.1%,11,1,-2.0,-19%
COc1ccc(N2Cc3ccccc3C2=NC(=O)c2ccc(C)cc2)cc1OC,?,4%,.,1,-2,-2.3,3%
CN1C(=S)N2CCCN2C1c1ccccc1 (configuration not stated),1%[15.4 µM],19%,.,5,5,2.6,6%
Cc1c(/C=N/NC(=O)c2cc(C(C)(C)C)[nH]n2)c2ccccc2n1C,8%[15.4 µM],14%,.,9,4,-2.4,5%
O=C(Nc1cccc(-c2nc3ccccc3s2)c1)c1cc(-n2cnnc2)ccc1Cl,26%,-6%,-6.1%,1,-9,2.1,?
C=CCNC(=S)NS(=O)(=O)c1cccs1,11%[15.4 µM],22µM*,.,13,-2,0.7,2%
CN(CC1COc2ccccc2O1)C(=S)NC1CCCCC1 (configuration not stated),?,-1%,1.9%,.,24,0.0,-15%
CC(=O)Nc1ccc(Nc2ccc([N+](=O)[O-])cn2)cc1,-22%,12%,.,-3,-1,4.4,-16%
COc1cccc(-c2nc(CS(=O)(=O)CC(=O)Nc3cccc(C(C)=O)c3)c(C)o2)c1,?,12%,1.1%&-2.0%,-9,-1,5.0,-16%
CCCN1CCN(CCCNC(=O)c2cc3c(=O)n(C)c4ccccc4c3n2C)CC1,29%,18%,4.9%,-5,-3,3.5,5%
CCC1(C)Cc2ccccc2-c2nc3n(c(=O)c21)CCCCC3 (configuration not stated),-2%,10%,-0.8%,-13,12,1.6,-16%
O=C(Nc1ccn(CCCN2CCN(Cc3cccc4ccccc34)CC2)c(=O)n1)OCc1ccccc1,18%,.,0.5%,.,-15,.,.
O=C(N/N=C/c1ccco1)c1cccc(N2CCCC2=O)c1,-9%[15.4 µM],15%,28µM*,6,-6,7.4,2%
Cc1ccc(C(=O)O/N=C/c2c(Cl)n(C)c3ccccc23)cc1,6%,11%,-0.8%,6,-6,0.2,9%[15.4 µM]
CCCCN1C(=O)C(=Nc2cccc3cnccc23)c2ccccc21,5%[15.4 µM],7%,.,11,10,-0.8,-13%
Cc1nn(-c2cc(N3CCOCC3)ccc2[N+](=O)[O-])c(=O)c2ccccc12,-4%,-2%,1.3%,2,4,2.7,-6%
# Next entries.
SMILES,gsp agonist,Sfp PPTase inh,ClpP mod,TRPV1 PAM,CtBP-E1A inh,Menin MLL FP FL,gsp antagonist
CC(C)CNCC1OCc2ccccc2CO1,7%[15.4 µM],11%,.,-7,0,0.5,7%
COC(=O)c1ccc(Cn2nc(C(F)(F)F)cc2C)cc1,?,5%,0.5%,-10,5,1.5,1%
CC(C)NC(=O)Nc1ccc2c(c1)C(=O)N([C@H](C)CO)C[C@H](C)[C@@H](CN(C)S(=O)(=O)c1cccs1)O2,.,.,-0.8%,.,9,.,1%
CC1CCCN(C(C(=O)Nc2ccc(C(C)C)cc2)c2ccc3c(c2)OCO3)C1 (configuration not stated),-44%[inhibitor],7%,-4.6%,15,-3,2.2,-25%
COc1ccc(-c2cc(C(F)F)nc(-n3nc(C)cc3C)n2)cc1,-24%,50µM*,?,16,?,1.4,-17%
CCOC(=O)c1cnn2c(C(F)(F)F)cc(-c3ccccc3)nc12,-14%,7%,-10%,-9,3,-0.7,-15%
O=C(COC(=O)c1ccc(S(=O)(=O)N2CCc3ccccc3C2)cc1)NC(=O)NCc1ccco1,-19%,14%,0.4%,26,-2,10,-15%
CCCCOc1cccc(C(=O)N(Cc2ccco2)C2CCS(=O)(=O)C2)c1 (configuration not stated),22%,17%,-0.3%,5,-6,1.0,-21%
CCN(CC)S(=O)(=O)c1ccc(OC)c(-n2cnnn2)c1,-17%[15.4 µM],-10%,-0.1%,-2,0,-3.0,8%
O=C(NCc1cccc(CNC(=O)c2ccco2)c1)c1ccco1,15%,-7%,-1.9%,-10,-2,0.1,-4%
CCOC(=O)C1=C(C)N2C(=C(C#N)[C@@H]1c1ccc(C(=O)OC)cc1)SC[C@@]2(O)C(C)(C)C,4%,9%,-14%,-5,5,1.5,-21%
COc1cc2c(cc1OC)C(C)N(C(=O)c1nccnc1C(=O)O)CC2 (configuration not stated),-7%,-25%,.,-26,8,3.2,7%

# Compound activity from PubChem.
